ANO1 activ = activators or potentiators of mouse TMEM16A chloride channel | AID 623877 | HEK293 TMEM16A/YFP-H148Q/I152L, iodide quench fluorescence; hits give low values | Q8BHY3 | B-score at 10 µM | 0.3% of 340,000 active;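 active means fluorescence-ratio B-score plate-corrected deviation score at least 3 library SD below zero, with starting fluorescence score within 5 deviations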;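 further: channel opened by trigger with iodide after compound preincubation; score built on the fluorescence ratio of max minus min over baseline; more negative score means more quench and so TMEM16A activation or potentiation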
KCNQ1 pot = human KCNQ1 channel potentiation or activation; P51787; CHO-K1 KCNQ1, thallium flux FluxOR fluorescence; hits give high values; B-score at 10 µM; 0.35% of 310,000 active;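 active means fluorescence ratio B-score, a plate-corrected score, at least three library SD, with initial intensity B-score within 5 SD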
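Test system: CHO-K1 cells stably expressing KCNQ1 / Medium: assay buffer / Also added: depolarizing K+/Tl+ stimulus, K2SO4 and Tl2SO4 each 12.5 mM in 5x stock / Incubation: 90 min dye loading and 20 min compound exposure, both at room temperature / Signal: thallium influx via FluxOR fluorescence, kinetic imaging / Evaluation: B score of baseline-normalized fluorescence ratio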
TMEM16A inh = mouse TMEM16A channel inhibition, primary screen; Q8BHY3; HEK293 TMEM16A/YFP iodide influx fluorescence, ionomycin; normalized B-score (activity score, 25-100; higher = stronger inhibition) at 10 µM; 1.2% of 310,000 active; AID 588511;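 active means ratio plate-corrected score three or more library SD toward inhibition, starting fluorescence score within five deviations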;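 further: score derived from kinetic fluorescence span divided by baseline fluorescence per well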
TRPC4 agonist = opens the mouse TRPC4 cation channel | Q9QUQ5 | 0.49% of 310,000 active | HEK293 TRPC4beta/mu-opioid, Fluo4 calcium fluorescence; hits give high values | B-score at 10 µM;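 active means B-score above 5 SD of library B-scores, and initial fluorescence ratio not above library mean plus 5 SD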;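 further: positive B-score marks a calcium rise read as TRPC4 activation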
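system = HEK293 cells stably co-expressing mouse TRPC4beta and mu-opioid receptor | schedule = Fluo4 dye loading 45 min at room temperature, 110 s recording | measure = B-scored integrated calcium fluorescence ratio | signal = Fluo4 calcium-sensitive dye fluorescence, kinetic, 1 Hz baseline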
KCNK3 inh = human KCNK3 channel inhibition, primary screen; O14649; CHO-KCNK3 thallium flux, FluxOR fluorescence; hits give low values; B-score at 10 µM; 0.84% of 340,000 active; AID 602410;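 active means B-score under library mean minus 4 SD, starting fluorescence ratio at most library mean plus 5 SD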;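 further: more negative B-score means stronger inhibition of thallium flux through KCNK3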
Target sequence (O14649 whole entry, looked up): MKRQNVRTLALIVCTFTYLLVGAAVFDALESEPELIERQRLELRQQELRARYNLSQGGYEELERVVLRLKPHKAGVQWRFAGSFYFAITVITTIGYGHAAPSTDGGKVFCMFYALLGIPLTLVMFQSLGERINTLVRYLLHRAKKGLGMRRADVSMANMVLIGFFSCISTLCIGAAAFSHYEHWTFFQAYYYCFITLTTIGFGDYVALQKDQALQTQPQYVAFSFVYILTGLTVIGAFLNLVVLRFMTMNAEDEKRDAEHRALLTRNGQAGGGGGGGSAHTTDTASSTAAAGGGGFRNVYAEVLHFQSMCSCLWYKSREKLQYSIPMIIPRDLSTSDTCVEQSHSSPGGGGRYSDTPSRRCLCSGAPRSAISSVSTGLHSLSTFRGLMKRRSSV
KCNK9 inh = inhibitors of human KCNK9 two-pore domain potassium channel; Q9NPC2; B-score at 10 µM; 1.2% of 310,000 active; HEK293 KCNK9, FluxOR thallium flux fluorescence; hits give low values;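 active means ratio B-score over 3 SD below the library mean, with starting fluorescence within 5 SD of its mean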;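 further: negative B-score means less thallium flux so channel inhibition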
Target sequence (Q9NPC2 whole entry, looked up, the tested form may be a part): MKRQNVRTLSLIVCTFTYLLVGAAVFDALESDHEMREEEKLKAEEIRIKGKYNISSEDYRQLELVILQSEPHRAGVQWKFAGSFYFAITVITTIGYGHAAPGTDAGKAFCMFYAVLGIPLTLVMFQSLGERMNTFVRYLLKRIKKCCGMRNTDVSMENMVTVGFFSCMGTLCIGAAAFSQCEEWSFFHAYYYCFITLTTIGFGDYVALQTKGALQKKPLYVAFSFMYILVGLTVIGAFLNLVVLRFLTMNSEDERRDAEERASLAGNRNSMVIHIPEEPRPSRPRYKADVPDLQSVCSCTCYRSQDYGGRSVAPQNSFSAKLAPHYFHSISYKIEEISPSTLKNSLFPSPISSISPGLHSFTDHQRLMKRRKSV
KCNQ1 inh = inhibitors of human KCNQ1 potassium channel. 1.3% of 310,000 active. B-score at 10 µM. CHO-K1 KCNQ1, FluxOR thallium flux fluorescence; hits give high values. P51787;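 active means compounds whose thallium flux B-score, printed positive for inhibition, exceeds three library SD while starting fluorescence stays within three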;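 further: channel opened by potassium depolarization with thallium stimulus after 20 min compound exposure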
HDAC3 inhib = human HDAC3 inhibition; O15379; recombinant HDAC3, fluorogenic peptide/trypsin coupled, fluorescence; inhibition, % at 8.3 µM; 0.15% of 320,000 active; AID 2718; in the data active means inhibition above about 26%, passing the limit was not always enough
TRPC4 potent = allosterically enhances the mouse TRPC4 cation channel; Q9QUQ5; HEK293 TRPC4beta/mu-opioid, DAMGO EC20, Fluo-4 Ca2+ flux; hits give high values; B-score at 10 µM; 0.42% of 310,000 active;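 active means B-score of calcium response area above 5 SD of library B-scores, with initial fluorescence ratio within 5 SD of library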;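 further: B-score of integrated fluorescence ratio over time as area under calcium response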
Dyrk1A ADPGlo = blocks rat Dyrk1A kinase activity. ADP-Glo luminescence, NFATc1 peptide. inhibition, % at 12.5 µM. 0.43% of 310,000 active. AID 504441; in the data active means inhibition above about 50%;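 further: plate controls were vehicle with enzyme for no effect and no enzyme for full effect; many of its hits are not listed in these tables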
Starred values were filed as active, the others as inactive; i = inactive; nt = not tested or not shown; & = joins results of further samples; ! = repeats disagree. The list is partial; count on the stated rates, not on these rows.

SMILES	ANO1 activ	KCNQ1 pot	TMEM16A inh	TRPC4 agonist	KCNK3 inh	KCNK9 inh	KCNQ1 inh	HDAC3 inhib	TRPC4 potent	Dyrk1A ADPGlo
O=C(O)c1cccc(NC(=O)c2ccc3c(c2)C(=O)N(c2ccccc2)C3=O)c1	i	i	i	i	i	i	i	1	i	-2
COc1ccc([C@@H]2Sc3ccccc3N(CCN(C)C)C(=O)[C@@H]2OC(C)=O)cc1	i	i	i	i	i	i	i	2	i	-3
CC1=C(/C=C/C(C)=C/C=C/C(C)=C/C(=O)O)C(C)(C)CCC1	i	i	i	i	i	i	i	2	i	4
Cc1cc(C(F)(F)F)nc(SCC(=O)NC2=NC(=O)C(C)S2)n1 (centres undefined)	i	i	i	i	i	i	i	-7	i	10
CCOc1ccccc1C(=O)N1CCOCC1	i	i	i	i	i	i	i	-6	i	-5
C[C@H](C(=O)O)c1cccc(C(=O)c2ccccc2)c1	i	i	i	i	i	i	i	0	i	9
CCn1cc(C(=O)O)c(=O)c2cc(F)c(N3CCNCC3)cc21	i	i	i	i	i	i	i	nt	i	8
O=C(O)c1ccc(Cl)c(NCc2cccnc2)c1	i	i	i	i	i	i	i	-4	i	1
COC1=CC(=O)C[C@@H](C)[C@]12Oc1c(Cl)c(OC)cc(OC)c1C2=O	i	i	i	i	i	i	i	-9	i	-2
NC(N)=NC(=O)c1nc(Cl)c(N)nc1N	i	i	i	i	i	i	i	-5&6&3	i	64*!
CN1C2CCC1CC(OC(=O)C(CO)c1ccccc1)C2 (centres undefined)	i	nt	i	nt	i	nt	nt	7	nt	10
CCc1cccc(N(C(=O)c2csnn2)C(C(=O)NC(C)(C)C)c2ccncc2)c1 (centres undefined)	i	i	i	i	i	i	i	3	i	-3
CCCc1cc(C(N)=O)c(NC(C)=O)s1	i	i	100*	i	i	i	i	6	i	13
COc1cc(-c2nnc(COC(=O)c3cccn3C)o2)cc(OC)c1OC	i	i	i	i	i	i	i	-4	i	0
Cc1ccc(NC(=O)CCCn2c(=O)[nH]c3ccsc3c2=O)cc1	i	i	i	i	i	i	i	5	i	-4
NS(=O)(=O)c1ccc(NC(=O)Nc2ccccc2)cc1	i	i	i	i	i	i	i	nt	i	-2
O=C(O)c1cc(-c2ccccc2)nc2ccccc12	i	i	i	i	i	i	i	0	i	6
Cc1cccc(-c2c(NC(=O)c3ccco3)oc3ccc(Cl)cc3c2=O)c1	i	i	i	i	i	i	i	-4	i	1
C=CCN1C2CCCC1CC(NC(=S)Nc1cccc(OC)c1)C2 (centres undefined)	i	i	i	i	i	i	i	3	i	3
CC(C)(C#N)c1cc(Cn2cncn2)cc(C(C)(C)C#N)c1	nt	i	i	i	nt	i	i	8	i	nt
COc1cc(CNC(=O)CCCC/C=C\C(C)C)ccc1O	nt	i	i	i	nt	i	i	-6	i	nt
O=c1c(-c2ccc(O)cc2)coc2cc(O)ccc12	i	i	i	i	i	i	i	-12	i	31
O=C(O)c1ccccc1/C=N/Nc1nc(N2CCCCC2)nc(N2CCCCC2)n1	nt	i	i	i	nt	i	i	-5	i	nt
NC(=O)c1cccnc1	i	i	i	i	i	i	i	-4	i	3
Cc1cccc(NC(=O)COC(=O)C2C3CC4OC(=O)C2C4C3)c1C (centres undefined)	i	i	i	i	i	i	i	2	i	-3
N=C(N)N1CCc2ccccc2C1	nt	i	i	i	nt	i	i	3	i	nt
COc1c(O)cc2oc(-c3ccc(O)cc3)cc(=O)c2c1O	i	i	i	i	i	i	i	-4	i	30
CN/C(=C/[N+](=O)[O-])NCCSCc1ccc(CN(C)C)o1	i	i	i	i	i	i	i	2	i	10

Sorted by heavy-atom count (smallest number first): part of the list above
SMILES	ANO1 activ	KCNQ1 pot	TMEM16A inh	TRPC4 agonist	KCNK3 inh	KCNK9 inh	KCNQ1 inh	HDAC3 inhib	TRPC4 potent	Dyrk1A ADPGlo
O=c1c(-c2ccc(O)cc2)coc2cc(O)ccc12	i	i	i	i	i	i	i	-12	i	31
Cc1ccc(NC(=O)CCCn2c(=O)[nH]c3ccsc3c2=O)cc1	i	i	i	i	i	i	i	5	i	-4
CCc1cccc(N(C(=O)c2csnn2)C(C(=O)NC(C)(C)C)c2ccncc2)c1 (centres undefined)	i	i	i	i	i	i	i	3	i	-3

Gathered by group: those above containing fluorine.
SMILES	ANO1 activ	KCNQ1 pot	TMEM16A inh	TRPC4 agonist	KCNK3 inh	KCNK9 inh	KCNQ1 inh	HDAC3 inhib	TRPC4 potent	Dyrk1A ADPGlo
Cc1cc(C(F)(F)F)nc(SCC(=O)NC2=NC(=O)C(C)S2)n1 (centres undefined)	i	i	i	i	i	i	i	-7	i	10
CCn1cc(C(=O)O)c(=O)c2cc(F)c(N3CCNCC3)cc21	i	i	i	i	i	i	i	nt	i	8

2 entries from above, reformatted:
canonical_smiles: CC1=C(/C=C/C(C)=C/C=C/C(C)=C/C(=O)O)C(C)(C)CCC1
  ANO1 activ: i	KCNQ1 pot: i	TMEM16A inh: i	TRPC4 agonist: i	KCNK3 inh: i	KCNK9 inh: i	KCNQ1 inh: i	HDAC3 inhib: 2	TRPC4 potent: i	Dyrk1A ADPGlo: 4
canonical_smiles: Cc1cc(C(F)(F)F)nc(SCC(=O)NC2=NC(=O)C(C)S2)n1 (centres undefined)
  ANO1 activ: i	KCNQ1 pot: i	TMEM16A inh: i	TRPC4 agonist: i	KCNK3 inh: i	KCNK9 inh: i	KCNQ1 inh: i	HDAC3 inhib: -7	TRPC4 potent: i	Dyrk1A ADPGlo: 10

Reprinted at random: 4 compounds from above
SMILES	ANO1 activ	KCNQ1 pot	TMEM16A inh	TRPC4 agonist	KCNK3 inh	KCNK9 inh	KCNQ1 inh	HDAC3 inhib	TRPC4 potent	Dyrk1A ADPGlo
CN/C(=C/[N+](=O)[O-])NCCSCc1ccc(CN(C)C)o1	i	i	i	i	i	i	i	2	i	10
COc1ccc([C@@H]2Sc3ccccc3N(CCN(C)C)C(=O)[C@@H]2OC(C)=O)cc1	i	i	i	i	i	i	i	2	i	-3
COC1=CC(=O)C[C@@H](C)[C@]12Oc1c(Cl)c(OC)cc(OC)c1C2=O	i	i	i	i	i	i	i	-9	i	-2
NS(=O)(=O)c1ccc(NC(=O)Nc2ccccc2)cc1	i	i	i	i	i	i	i	nt	i	-2

Assay outcomes (PubChem)
